# TRPML1 blocker: human mucolipin-1 channel inhibition. Q9GZU1. TRPML1-inducible cells, Ca2+ dye fluorescence, FDSS; hits give low values; inhibition of EC80 agonist-evoked calcium signal. activity change, negative = inhibition, % (concentration not given with the values). hit rate 0.02% among 390,000; in the data active means activity change below about -50%; inconclusive means about -30% to -50%; inactive means above about -30%;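 also: stimulus is agonist 54-4 at its EC80 concentration; % is scaled to controls: 0 for no effect and ±100 for the full control effect; compound concentration not given in the record; the text of the record puts the active cut at -80%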
# Target sequence (Q9GZU1 whole entry, looked up): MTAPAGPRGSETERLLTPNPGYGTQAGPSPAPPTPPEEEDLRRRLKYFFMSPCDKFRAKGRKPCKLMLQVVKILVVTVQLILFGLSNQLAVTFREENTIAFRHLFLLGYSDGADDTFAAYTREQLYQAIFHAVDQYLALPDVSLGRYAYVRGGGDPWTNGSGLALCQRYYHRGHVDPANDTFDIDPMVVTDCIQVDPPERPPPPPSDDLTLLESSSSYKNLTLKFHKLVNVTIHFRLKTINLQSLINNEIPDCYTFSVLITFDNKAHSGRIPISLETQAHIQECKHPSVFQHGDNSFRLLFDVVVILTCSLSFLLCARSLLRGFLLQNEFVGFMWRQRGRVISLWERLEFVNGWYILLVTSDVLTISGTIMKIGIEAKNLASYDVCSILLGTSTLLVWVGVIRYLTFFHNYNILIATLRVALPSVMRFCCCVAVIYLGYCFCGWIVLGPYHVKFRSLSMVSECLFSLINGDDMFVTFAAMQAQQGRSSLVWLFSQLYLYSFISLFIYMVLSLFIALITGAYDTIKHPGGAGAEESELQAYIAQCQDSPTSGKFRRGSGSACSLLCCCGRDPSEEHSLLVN
#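 Tet-induced TRPML1-DL cells loaded with Ca8 no-wash calcium dye were read kinetically on FDSS. Compound addition was followed by EC80 agonist 54-4 (4 uM final); inhibition was read over 110 s.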
# TRPV1 potentiator: enhances activation of the human vanilloid receptor TRPV1 | potentiation, % at 8.33 µM | TRPV1-expressing cells, Fluo-8 calcium influx, capsaicin EC20 potentiation; host cell line not named in the record; control for the full effect not named in the record | hit rate 0.02% among 320,000 | Q8NER1; active means potentiation above 80%; inconclusive means 30% to 80%; inactive means below 30%; also: 0% is about no effect
#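 Fluo-8 calcium influx in TRPV1-expressing cells, kinetic read (ex 480/em 520 nm). Compound added and read 3 min for agonist activity, followed by capsaicin at EC20 final and 2 min further read for enhancement.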
# TRPML1 agonist: agonists of human TRPML1 channel | TRPML1-expressing cells, Ca2+ dye fluorescence, FDSS; host cell line not named in the record; reference of the full effect not given here | activation, % (concentration not given with the values) | hit rate 0.12% among 410,000 | AID 624414; in the data active = activation above about 50%; inconclusive = about 30% to 50%; inactive = below about 30%; also: 0% is about no effect; the text of the record puts the active cut at 80%
#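 Cells: TRPML1-DL, 1X Tet inducer, ~16 h at 37 degrees C/5% CO2. Dye: ABD Ca8 no-wash + quencher, 45-90 min RT. Read: 10 s baseline, compound add, 110 s agonist phase; 54-4 EC80 (4uM final), 110 s antagonist phase.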
# Six1-Eya2 inh: Six1/Eya2 interaction inhibition | hit rate 0.56% among 360,000 | AlphaScreen GST-Six1/His-Eya2 binding, biochemical; hits give low values; control for the full effect not named in the record | AID 651725 | Q15475+O00167 | activity change, % (concentration not given with the values); in the data active = activity change below about -65%; inconclusive = about -30% to -65%; inactive = above about -30%; also: % is scaled to controls: 0 for no effect and ±100 for the full control effect
#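 AlphaScreen luminescence read after one hour at 37 °C in darkness. Pin-transferred compounds met GST-Six1 and His-Eya2 protein (5X stock 250 nM/500 nM) plus glutathione donor and Ni-chelate acceptor beads (5X, 50 ug/mL).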
# CtBP-E1A blk: CtBP/E1A binding inhibition; hit rate 0.49% among 340,000; activity change, % (test concentration not listed); AlphaScreen GST-E1A/His-CtBP binding, 1536-well; hits give low values; control for the full effect not named in the record; in the data active means activity change below about -65%; inconclusive means about -30% to -65%; inactive means above about -30%; also: % is scaled to controls: 0 for no effect and ±100 for the full control effect; compound concentration not given in the record
#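 GST-E1A and His-tagged CtBP (125 nM each as 5X stock) were preincubated with pin-transferred compound for 2 h at 37 °C in the dark, then glutathione donor and nickel acceptor beads were added for 1 h before AlphaScreen reading.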
# D2 PAM: human D2 receptor positive allosteric modulation | P14416 | DiscoveRx D2 beta-arrestin cells, luminescence, 90 min; 100% = 57 uM dopamine signal | potentiation, % (concentration not given with the values) | hit rate 0.23% among 360,000 | AID 624464; active = potentiation of 50% or more; inconclusive = 30% to 50%; inactive = 30% or less;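 also: compound concentration not given in the record; tested on top of an EC20 dose of dopamine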
# Target sequence (P14416 whole entry, looked up): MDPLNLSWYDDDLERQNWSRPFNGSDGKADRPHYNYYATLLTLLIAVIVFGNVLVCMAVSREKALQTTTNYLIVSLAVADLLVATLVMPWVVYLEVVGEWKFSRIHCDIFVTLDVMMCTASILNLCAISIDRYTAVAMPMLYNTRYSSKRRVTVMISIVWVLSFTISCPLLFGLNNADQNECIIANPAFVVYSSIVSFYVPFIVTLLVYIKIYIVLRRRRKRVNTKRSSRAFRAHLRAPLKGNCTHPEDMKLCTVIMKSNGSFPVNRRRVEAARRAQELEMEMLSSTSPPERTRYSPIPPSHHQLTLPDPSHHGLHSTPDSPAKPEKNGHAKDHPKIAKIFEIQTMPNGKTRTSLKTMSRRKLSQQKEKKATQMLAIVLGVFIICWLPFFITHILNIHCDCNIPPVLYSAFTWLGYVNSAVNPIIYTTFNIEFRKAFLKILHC
#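 D2 cells co-treated with compound plus 50 nM dopamine (EC20) for 90 min at 37 deg C to detect potentiation. Beta-arrestin recruitment was read as enzyme-fragment luminescence after 1 h at ambient temperature. Full response was set by 57 uM dopamine.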
# Active calls of the source: *; u = inconclusive; x = no result given; & = joins results of further samples.
1. CCN(C(=O)CN1CCN(C)CC1)c1c(N)n(Cc2ccccc2)c(=O)[nH]c1=O
2. CCc1nc2ccc(C(=O)Nc3ccc(OC)c(OC)c3)cn2c1N(C)C(=O)c1cccc(OC)c1
3. O=C(O)c1ccc(C(=O)O)c(C(=O)c2ccc(NC(=O)c3ccccc3)cc2)c1
4. CC1=C(C)CC2C(=O)N(Cc3ccccc3)C(=O)C2C1 (centres undefined)
5. O=C(O)c1ccccc1CSc1ccccn1
6. COc1ccc(-c2cc(=O)c3c(O)c(OC)c(O)cc3o2)cc1
7. C[C@H](CCC(=O)O)[C@H]1CC[C@H]2[C@@H]3CC[C@@H]4C[C@H](O)CC[C@]4(C)[C@H]3CC[C@]12C
8. CCOc1cccc(NC(=O)C2CC(=O)N(C)C2)c1 (centres undefined)
entry no.	1	2	3	4	5	6	7	8
TRPML1 blocker	3.0	x	x	-7.4	-18.2	x	-12.4	17.0
TRPV1 potentiator	-1.9	x	0.4	2.5	19.1	16.1	-15.6	-4.3
TRPML1 agonist	-0.3	-0.8	x	0.3	-0.6	x	1.6	0.1
Six1-Eya2 inh	0.6	-9.4	6.8	2.7	6.8	-26.0	-1.6	3.1
CtBP-E1A blk	9.8	-2.6	6.4	-4.8	1.7	-8.6	3.2	9.8
D2 PAM	2.6	-1.4	-4.2	0.4	-0.6	-51.7	-4.6	7.2

9. CC1C2Cn3c(nc4ccccc43)C1N(C(C)C)O2 (centres undefined)
10. CC(C)Cn1c(=O)c(C(=O)Nc2ccncc2)c(O)c2ccccc21
11. CC(C)(C)c1cc2cccnc2n1Cc1ccccc1
12. CCCCN(Cc1cc2ccccc2[nH]c1=O)S(=O)(=O)c1ccc(C)cc1
13. CCOC(=O)NC(NCc1ccccc1)(C(F)(F)F)C(F)(F)F
14. CCOc1ccc(-c2nnc(NC(=O)Cc3cc(OC)c(OC)c(OC)c3)o2)cc1
15. CC(C)(C)c1ccc(C(CC(=O)O)NC(=O)c2ccccc2F)cc1 (centres undefined)
16. C[C@@H]1C(c2ccc(F)cc2)=NN(c2ccccc2)[C@H]1C(=O)N1CCOC1=O
entry no.	9	10	11	12	13	14	15	16
TRPML1 blocker	12.2	u	25.6	-19.7	-8.6	16.3	6.8	51.3
TRPV1 potentiator	23.0	x	-1.5	13.3	-10.8	8.1	-9.0	x
TRPML1 agonist	-0.5	1.9	-0.4	2.7	-0.7	-0.5	0.2	1.5
Six1-Eya2 inh	6.1	-10.0	17.6	-11.5	0.0	-10.4	201.5	9.3
CtBP-E1A blk	4.9	-11.6	2.6	-1.0	0.3	-15.5	-7.9	-21.4
D2 PAM	-7.8	-10.9	-14.9	-0.9	-8.5	-3.9	6.3	-1.9

17. Cc1ccc(C2=NNC(=O)C(c3c[nH]c4ccccc34)C2)cc1 (centres undefined)
18. Cc1onc(-c2ccccc2)c1C(=O)Nc1ccc(NC(=O)c2c(-c3ccccc3)noc2C)cc1
19. O=C(COc1ccc(-n2cnnn2)cc1)NCCc1ccc(F)cc1
20. CN(C)c1ccc(S(=O)(=O)N2CCCCC2)cc1NC(=O)COc1ccccc1F
21. Cc1nnsc1C(=O)Nc1ccccc1Cl
22. CCc1ccc2c(c1)c(N=NC1=NC(=O)CS1)c(O)n2CC
23. NC(=O)c1nsc(C(=O)N(c2ccccc2)C(C(=O)NC2CCCC2)c2cccs2)c1N (centres undefined)
24. CCc1noc(C)c1C(=O)Nc1ccc(S(=O)(=O)N2CCC(C)CC2)cc1
entry no.	17	18	19	20	21	22	23	24
TRPML1 blocker	3.0	16.6	-9.8	7.4	-1.2	10.6	-3.5	2.6
TRPV1 potentiator	5.6	x	-20.2	-0.5	-2.8	-13.5	12.8	-9.2
TRPML1 agonist	1.1	-1.0	0.0	1.8	0.2	-0.1	0.7	0.3
Six1-Eya2 inh	-4.3	1.7	7.6	-2.5	7.0	4.5	-11.3	1.2
CtBP-E1A blk	x	x	4.0	1.3	10.3	1.4	14.8	-3.5
D2 PAM	-4.1	-10.0	17.8	-14.8	2.9	-29.5	-2.1	0.6

25. C=CCOc1ccc(C(=O)/C=C2/C(=O)Nc3ccccc32)cc1
26. CC(=O)N(C)c1ccc(NC(=O)COc2ccc(Br)cc2C)cc1
27. CCC(CO)Oc1cc(NC(=O)c2ccccc2[N+](=O)[O-])c2ncn(C(C)C)c2c1 (centres undefined)
28. CCOc1ccc(-n2c(SCC(=O)Nc3cc(C)on3)nnc2-c2c[nH]c3ccccc23)cc1
29. O=C(COC(=O)/C=C/c1cccc(F)c1)Nc1ccccc1-c1ccccc1
30. CCOC(=O)C1=C(C)NC(=O)NC1c1ccc(-c2ccc(F)cc2)o1 (centres undefined)
31. C=CCn1c(SCC(=O)NCCC2=CCCCC2)nc2ccc(Cl)cc2c1=O
32. COc1ccc(-c2nc(CN3CCC(C(=O)NC4CCCc5ccccc54)CC3)c(C)o2)cc1OC (centres undefined)
entry no.	25	26	27	28	29	30	31	32
TRPML1 blocker	-5.9	-1.5	-4.7	-2.6	-9.5	-11.5	-4.5	14.9
TRPV1 potentiator	-4.5	-14.0	x	1.3	-4.2	1.6	-1.7	x
TRPML1 agonist	-0.4	1.1	0.6	2.2	0.9	-0.8	5.2	0.2
Six1-Eya2 inh	0.9	-6.5	1.4	7.5	0.7	0.4	1.3	5.7
CtBP-E1A blk	1.2	-0.6	-0.1	1.6	0.2	-0.9	2.3	3.1
D2 PAM	-1.3	0.2	5.3	-8.8	0.1	-8.1	-6.7	-1.6

# Structures above that have a Cl atom (2):
21. Cc1nnsc1C(=O)Nc1ccccc1Cl
31. C=CCn1c(SCC(=O)NCCC2=CCCCC2)nc2ccc(Cl)cc2c1=O
entry no.	21	31
TRPML1 blocker	-1.2	-4.5
TRPV1 potentiator	-2.8	-1.7
TRPML1 agonist	0.2	5.2
Six1-Eya2 inh	7.0	1.3
CtBP-E1A blk	10.3	2.3
D2 PAM	2.9	-6.7

# Other compounds follow:
33. COc1ccc(/C(C)=N/NC(=O)Cc2c(C)nc(C)[nH]c2=O)cc1
34. COc1ccc(NC(=O)c2cc(-c3cc(F)ccc3OCC3CCCO3)n[nH]2)cc1OC (centres undefined)
35. Cc1c(C(=O)Nc2cc(F)cc(F)c2)cnn1-c1ccccc1
36. COC(=O)c1c(NC(=O)CSc2nnc(-c3ccco3)n2Cc2ccccc2)sc(C)c1C
37. C=CC[C@@H](CC(=O)N[C@H](CO)Cc1ccccc1)C(=O)N[C@@H](COC(=O)[C@@H](CC=C)CC(=O)OC(C)(C)C)Cc1c[nH]c2ccccc12
38. NC(Cc1ccc(O)c([N+](=O)[O-])c1)C(=O)O (centres undefined)
39. O=C(/C=C/c1ccco1)NC(=S)Nc1ccccc1N1CCCC1
40. COCCn1c(NCc2ccc(C)cc2)nc2c1c(=O)[nH]c(=O)n2C
entry no.	33	34	35	36	37	38	39	40
TRPML1 blocker	-12.1	x	15.3	26.4	12.6	4.1	-19.0	27.5
TRPV1 potentiator	-12.9	x	6.6	24.9	x	-6.9	2.5	26.5
TRPML1 agonist	0.8	-0.9	0.7	3.8	-0.4	0.2	6.7	1.6
Six1-Eya2 inh	9.1	-3.1	-1.0	-26.2	-5.4	3.9	u	-0.1
CtBP-E1A blk	16.2	6.1	x	-18.5	x	5.5	u	3.7
D2 PAM	0.9	15.2	-12.9	-13.5	-0.7	0.8	-5.8	11.5

41. Cc1ccc2[nH]c3c(c2c1)CN(C(=O)CN1CCN(c2ccccn2)CC1)CC3
42. CCOC(=O)c1c(NC(=O)C2C3C=CC(C3)C2C(=O)O)sc2c1CCC(C)C2 (centres undefined)
43. CC1Sc2ccc(S(=O)(=O)N3CCC(C(=O)NCc4ccccc4)CC3)cc2NC1=O (centres undefined)
44. CCN(C(=O)CCS(=O)(=O)c1cccc2nsnc12)c1cccc(C)c1
45. O=C(c1cc(N2C(=O)C3C4CCC(C4)C3C2=O)ccc1Cl)N1CCN(c2ccc(F)cc2)CC1 (centres undefined)
46. CN(C)CCOCCOc1ccc(Cl)cc1Br
47. CCOC(=O)c1nn(-c2ccccc2)c2nnc(Cc3ccc(C)cc3)c(=O)n12
48. Cc1ccc(CNC(=O)CS(=O)(=O)Cc2nc(-c3ccccc3F)oc2C)cc1
entry no.	41	42	43	44	45	46	47	48
TRPML1 blocker	38.5	-18.4	11.8	5.5&-2.1	-3.4	35.0	-8.5	-7.7
TRPV1 potentiator	-6.3	-1.0	3.2	-0.8	-0.1	15.3	-7.9	17.2
TRPML1 agonist	1.1	-0.3	-1.0	-0.8&0.1	0.4	-0.5	-0.7	-0.3
Six1-Eya2 inh	-19.0	-10.2	0.5	5.2	2.6	-7.2	4.9	0.9
CtBP-E1A blk	-13.8	-13.1	3.2	2.9	-4.9	0.6	5.6	-5.4
D2 PAM	2.8	-3.7	-2.6	5.2	-27.1	-27.9	2.5	-2.6

49. O=C(Cc1ccccc1)Nn1c(-c2ccccc2)nc2ccccc2c1=O
50. CCOC(=O)Cc1csc(NC(=O)CSc2nnnn2-c2ccc(C)cc2C)n1
51. CCCOC(=O)Nc1nnc(CCC)s1
52. COc1ccc(NC(=O)c2ccccc2NC(=O)c2ccccc2)cc1
53. O=C(CCN1C(=O)c2cccc3cccc(c23)C1=O)NCc1cccnc1
54. Clc1ccc(-n2nnnc2CN2CCCCC2)cc1Cl
55. COc1ccccc1CN1CCNC(=O)C1CC(=O)NCc1csc(C)n1 (centres undefined)
56. O=C(Nc1ccn(CCOC(=O)c2ccccc2)c(=O)n1)c1ccccc1
entry no.	49	50	51	52	53	54	55	56
TRPML1 blocker	-1.7	12.9	2.7	11.5	31.1	2.6	13.4	x
TRPV1 potentiator	16.1	u	-5.8	u	-12.1	-5.8	10.6	x
TRPML1 agonist	-0.2	0.3	-0.6	0.7	-0.5	0.1	1.1	-0.7
Six1-Eya2 inh	17.8	-1.1	5.1	0.1	-2.6	4.9	7.3	1.1
CtBP-E1A blk	13.0	-3.3	6.9	x	7.6	10.7	-0.7	5.6
D2 PAM	13.0	-12.7	-8.0	-2.5	-6.3	-8.5	-5.7	-1.6

# 2 compounds from above with just CtBP-E1A blk and TRPV1 potentiator:
cpd	SMILES	CtBP-E1A blk	TRPV1 potentiator
55	COc1ccccc1CN1CCNC(=O)C1CC(=O)NCc1csc(C)n1 (centres undefined)	-0.7	10.6
52	COc1ccc(NC(=O)c2ccccc2NC(=O)c2ccccc2)cc1	x	u

# (cont.)
57. CN(C(=O)COC(=O)/C=C/c1ccc(C(F)(F)F)cc1)C1CCS(=O)(=O)C1 (centres undefined)
58. CC1CCC2(CC1)NC(=O)N(CC(=O)N1CCN(S(=O)(=O)c3ccccc3)CC1)C2=O (centres undefined)
59. Nc1nc(Nc2cccc(Cl)c2)n[nH]1
60. O=C(CN1CCN(c2ccccc2O)CC1)Nc1ccc2c(c1)OCCCO2
entry no.	57	58	59	60
TRPML1 blocker	15.5	4.8	-4.5	12.3
TRPV1 potentiator	-0.7	4.0	-3.6	-5.4
TRPML1 agonist	-0.1	0.4	0.9	0.0
Six1-Eya2 inh	1.2	1.2	-10.8	-2.5
CtBP-E1A blk	3.3	-21.6	0.0	1.8
D2 PAM	-5.7	-5.3	-1.8	6.1

# Bioassay records as filed in PubChem BioAssay.
